Sa RN4220 lethal: kills Staphylococcus aureus RN4220. inhibition, % (concentration not given with the values). 0.33% of 330,000 active. S. aureus RN4220 growth, OD600, 16 h;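 active means z-score of -3 or lower and OD600 up to 0.18 on both plates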;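 further: plate controls were untreated cells for no effect and reference antibiotic for full effect; stock transfer was 100 nL into about 80 µL; one replicate is shown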
Autofluor counter: counter-screen for toxin protease inhibitors: compound fluorescence; compound autofluorescence counterscreen, microsphere flow cytometry; stronger effect = higher value; fluorescence intensity (concentration not given with the values); 3.1% of 360,000 active; AID 624483;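 active means at least 3 SD above the mean of all compounds, about 16000 in these data; inconclusive means too few beads counted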;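 further: 100 nL of 1 mM stock went into each well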
Mtb hypoxia inh: Mtb hypoxia fluorescent reporter inhibition; M. tuberculosis hypoxia-regulated fluorescent reporter, fluorescence; fluorescence inhibition, % (concentration not given with the values); 0.1% of 300,000 active; AID 1159583;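 active means 35 to 45% if threefold the growth effect, above 45% if 1.5-fold the growth effect; inactive means the rest, general growth blockers included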;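 further: wells of about 50 µL received 100 nL stock; 0% = vehicle wells and 100% = reference inhibitor wells; whole bacteria with a GFP reporter of the hypoxia response; strong numbers were not always called active; many hits fall short of the cut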
PrP 5UTR inh: suppresses PrP 5' UTR mRNA reporter expression. cell-based PrP 5' UTR mRNA reporter, plate reader. inhibition, % (no concentration beside the values). 0.35% of 340,000 active;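 active means every replicate at 50% or more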;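 further: 0 = median of the neutral control wells; tested in H4 reporter cells; numbers are from one replicate; inactives centre near -14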
Sa ugtP lethal: kills S. aureus RN4220 lacking UgtP | growth inhibition, % (concentration not given with the values) | 0.54% of 330,000 active | S. aureus RN4220 ugtP deletion, OD600 growth, 16 h; some inactives read as strong as hits | AID 1259309;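 active means z-score under -3 and OD600 up to 0.15 on both plates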;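 further: plate controls were untreated wells for no effect and antibiotic for full effect; wells of about 80 µL received 100 nL stock; the first replicate is given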
BJeLR lethal: kills HRASV12-expressing BJeLR cells. BJeLR (HRASV12) viability, CellTiter-Glo ATP luminescence, 48 h; reference of the scale not given here. inhibition, % (test concentration not listed). 0.17% of 300,000 active. AID 1554;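 active means replicate mean above 50%; inconclusive means above 50% but judged a plate artefact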;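 further: 50 nL library stock added to about 25 µL; numbers are from one replicate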
Mtb hypoxia inh growth: recorded beside Mtb hypoxia inh, whose call it bears; growth inhibition, %; measured here: M. tuberculosis growth (absorbance);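 0% = vehicle and 100% = reference antibiotic; read after six days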
Starred values were filed as active, the others as inactive; u = inconclusive; x = not tested or not shown; & = joins results of further samples.

Structure	Sa RN4220 lethal	Autofluor counter	Mtb hypoxia inh	Mtb hypoxia inh growth	PrP 5UTR inh	Sa ugtP lethal	BJeLR lethal
Nc1nonc1-n1nnc(C(=O)NN=Cc2c(Cl)cccc2Cl)c1CSC1=NCCS1	-9.0	x	-8	-12	x	-4	x
CCN(Cc1ccncc1)C(=O)c1cc(COc2ccc(C)c(C)c2)on1	14	5364	7	10	-12	8	4
CCC(CC)C(=O)c1c[nH]c(C(=O)NCc2ccco2)c1	5.4	4159	5	9	-15	9	-4
CC(C)C[C@@H](CO)N1CCN(Cc2ccc([N+](=O)[O-])cc2)CCC1=O	x	4015	x	x	-12	x	-6
CC1Cc2cc(-c3csc(NC(=O)Cc4cccs4)n3)ccc2N1S(C)(=O)=O (stereo not given)	9.9	11280	-5	-3	-9	-3	x
COCCNc1nc2c(c(=O)n(Cc3ccccc3F)c(=O)n2C)n1C	-0.2	3145	4	3	-26	14	2
C=CCOc1nc2c(c(=O)n(C)c(=O)n2C)n1Cc1ccc(Cl)cc1	0.9	2555	19	5	-21	-12	8
COC(=O)c1ccccc1NC(=O)COC(=O)CO/N=C(\C)c1ccc2c(c1)OCO2	x	5570	x	x	-26	x	-8
COc1ccc(C(=O)NC2CCN(C(=O)Nc3ccc(F)cc3)CC2)cc1	-2.3	5045	7	2	-11	5	-13
COc1ccc(C2=NS(=O)(=O)N(C)C(C(=O)N3CCCCC3C)=C2)cc1 (stereo not given)	3.9	4747	6	5	-11	-1	6
O=C(/C=C/c1ccccc1Cl)NCc1ccccc1	0.5	20859*	4	3	-74	-6	-11
COc1ccc(NC(=O)c2ccccc2NC(=O)c2cccs2)cc1	1.5	5622	-3	15	-11	9	-16
Cn1cnnc1SCc1ccccc1	-14	u	3	1	-22	-2	5
Cc1nc(NC(=O)CSc2nnc(-c3ccncc3)n2C)sc1C	-0.6	4600	2	-5	-9	3	-1
CCCC(=O)C1=C(O)C(c2cccc(Oc3ccccc3)c2)CCC1=O (stereo not given)	27	1877	1	0	0	9	4
CCOC(=O)c1c(C)[nH]c(C(=O)NN=Cc2cc([N+](=O)[O-])ccc2O)c1C	70	x	17	3	x	8	x
COc1ccccc1CCNC(=O)c1ccc(NC(=O)CC2SC(N3CCCCC3)=NC2=O)cc1 (stereo not given)	0.3	3664	1	8	-11	-4	x
COc1ccccc1-c1nnc(Sc2nc([N+](=O)[O-])nn2C)o1	-1.6	16481*	x	x	-10	40	4
CCCCNC(=O)c1ccc2c(c1)C(=O)N(Cc1ccncc1)C2=O	-1.1	5569	3	1	-14	3	2
COc1cccc(/C=N/N2C(=O)CSC2=S)c1O	x	9137	x	x	-4	x	-1

Just PrP 5UTR inh and BJeLR lethal, for some of the entries so far:
molecule,PrP 5UTR inh,BJeLR lethal
CC(C)C[C@@H](CO)N1CCN(Cc2ccc([N+](=O)[O-])cc2)CCC1=O,-12,-6
CC1Cc2cc(-c3csc(NC(=O)Cc4cccs4)n3)ccc2N1S(C)(=O)=O (stereo not given),-9,x

Later entries
Structure	Sa RN4220 lethal	Autofluor counter	Mtb hypoxia inh	Mtb hypoxia inh growth	PrP 5UTR inh	Sa ugtP lethal	BJeLR lethal
CCOC(=O)c1c(NC(=O)c2cc(C)oc2C)sc(C(=O)Nc2ccc(Cl)cc2)c1C	0.2	4163	9	7	-36	-7	-10
Cc1c2n(c3ccccc13)CCN(C)C2	-13	3700	4	15	-4	-8	3
COc1ccc(C2N(C(=O)CN3CCOCC3)CCN2S(=O)(=O)c2ccccc2)cc1 (stereo not given)	4.2	22919*	3	5	-18	-2	x
COC(=O)c1c(NC(=O)CN2CCN(c3ncccn3)CC2)sc(C(N)=O)c1C	0.5	4123	5	-1	9	4	-8
COC(=O)c1c(C(=O)OC)c(-c2ccc(F)cc2)n2c1CSC2	6.2	3786	-2	12	-21	1	5
COCCN=c1scc(-c2cccs2)n1N=Cc1ccc(O)c(O)c1O	11	x	5	3	x	-9	x
COc1ccccc1NC(=O)Cc1nnc(SCC(=O)Nc2ccc(F)cc2F)n1C	-1.3	3994	-1	-6	-16	0	-8
COc1ccc2[nH]c3c(=O)n(/N=C/[C@H]4C(C)C=C(C)CC4C)c(=O)[nH]c3c2c1 (stereo not given in full)	x	2528	x	x	8	x	-3
O=C(O)Cn1c(=O)cnc2ccccc21	1.6	8819	4	3	-7	-2	6
Cc1cc(C)c2[nH]c(=O)c(CN(Cc3ccccc3)C(=S)NCCCN(C)C)cc2c1	-2.3	3302	8	7	-9	3	15
COC(=O)c1ccc(N/C(C)=C/C(=O)c2ccc(C)o2)cc1	4.4	16289*	2	0	-11	4	3
CCc1noc(C)c1C(=O)N1CCCC(CCC(=O)NCc2ccc(F)c(F)c2)C1 (stereo not given)	12	4315	0	0	-23	4	1
CC(CC(=O)Nc1ccccn1)=NNC(=O)c1ccc([N+](=O)[O-])cc1Cl	13	x	-10	6	x	-2	x
Cc1ccnn1CC(=O)NN=Cc1cccs1	2.2	x	-9	2	x	2	x
O=C(Oc1ccc(Cl)cc1)c1ccc(N2CCOCC2)c([N+](=O)[O-])c1	2.4	2498	-8	9	-17	-3	-2
CC(C)NC(=O)Nc1cccc2c1O[C@H](CN(C)S(C)(=O)=O)[C@@H](C)CN([C@H](C)CO)C2=O	2.1	3719	2	0	-15	9	x
CC(=O)Cn1ncc(N(C)Cc2ccccc2)c(Cl)c1=O	-0.4	3623	8	7	-10	4	7
O=C(COc1ccc(Cl)cc1)NCCNc1ccc([N+](=O)[O-])cc1	2.4	3646	1	8	-2	0	6
CCN(C(=O)c1cn(C)c(=O)c2cc(OC)c(OC)cc12)c1cc(C)ccc1C	0.6	2621	x	x	-21	1	9
O=C(O)Cn1cc(/C=C2\C(=O)NC(=O)N(Cc3ccco3)C2=O)c2ccccc21	2.7	2658	-9	2	-32	3	5

In the list so far, these have a COOH group:
Structure	Sa RN4220 lethal	Autofluor counter	Mtb hypoxia inh	Mtb hypoxia inh growth	PrP 5UTR inh	Sa ugtP lethal	BJeLR lethal
O=C(O)Cn1c(=O)cnc2ccccc21	1.6	8819	4	3	-7	-2	6
O=C(O)Cn1cc(/C=C2\C(=O)NC(=O)N(Cc3ccco3)C2=O)c2ccccc21	2.7	2658	-9	2	-32	3	5

Carrying on.
Structure	Sa RN4220 lethal	Autofluor counter	Mtb hypoxia inh	Mtb hypoxia inh growth	PrP 5UTR inh	Sa ugtP lethal	BJeLR lethal
CCc1cc(C(=O)NNC(=S)NC(C)c2ccccc2)cs1 (stereo not given)	2.1	16961*	-2	8	-3	1	-20
Cc1ccc(N(CC(=O)N/N=C/c2cccs2)S(C)(=O)=O)cc1	x	2242	x	x	-5	x	-11
O=C(COC(=O)c1nc(Cl)ccc1Cl)NC1CCCCCC1	1.8	u	7	14	-7	3	0
Cn1c(=O)c2c(SCc3ccccc3)nc(C3CC3)nc2n(C)c1=O	5.6	4020	4	-1	-31	4	0
Cc1cccc(C(N)=NOC(=O)CCCN2C(=O)c3ccccc3C2=O)c1	4.4	x	1	8	x	-7	x
COc1ccc(N(C(C)C(=O)NCCSCc2cccc(Cl)c2)S(C)(=O)=O)cc1 (stereo not given)	3.8	3641	-2	10	-16	-6	-5
CCc1ccc(N2CCN(S(=O)(=O)CC34CCC(CC3=O)C4(C)C)CC2)cc1 (stereo not given)	x	3863	x	x	-7	x	10
CSc1ncc(CN2CCc3c([nH]c4ccccc34)C2C(C)(C)C)cn1 (stereo not given)	4.4	4815	8	-4	9	-1	6
CC1CCN(c2ccc(C(=O)O)cc2)CC1	1.3	3426	x	x	-9	3	-3
O=C(NNc1c(Cl)cncc1Cl)c1cccs1	2.2	3640	14	14	-5	6	6
CC(C)C(NC(=O)c1c(F)cccc1F)C(=O)N1CCN(c2ncccn2)CC1 (stereo not given)	3.6	3433	6	3	-22	4	x
C/C(=N\NC(=O)C(c1ccncc1)N1CCOCC1)c1ccc(Br)cc1 (stereo not given)	x	2000	x	x	-13	x	5
COc1ccc(NC(=O)c2cc(-c3ccccc3O)n[nH]2)cc1Cl	2.5	3702	-4	1	-18	10	-1
CC1(c2ccccc2)NC(=O)N(CC(=O)NC(=O)NCc2ccco2)C1=O (stereo not given)	0.6	2550	x	x	-12	1	2
Cc1cc(C(=O)NNCc2ccccc2)no1	3.1	5973	2	-1	-6	4	x
CC1(NC(=O)c2cccc(S(=O)(=O)N3CCN(c4ccc(F)cc4)CC3)c2)CCS(=O)(=O)C1 (stereo not given)	-1.1	6515	-5	-3	2	0	1
COc1ccc(C(=O)OCC(=O)c2ccc(Br)s2)c(OC)c1	2.9	5455	8	0	-22	10	-3
COc1ccc(/C=C/C(=O)NC(=S)NN2CCCCC2c2cccnc2)cc1 (stereo not given)	0.3	2777	13	15	-9	2	5
N#Cc1ccc(CSc2nc(N)cc(N)n2)cc1	x	3955	x	x	-20	x	-14
Cc1cc(N2CCN(c3cccc(C(F)(F)F)c3)CC2)n2ncnc2n1	8.5	4978	x	x	-11	7	4
O=C(NCc1ccc(F)cc1)c1cccc2c1C(=O)c1ccc(N3CCOCC3)cc1S2(=O)=O	0.3	2751	5	1	2	10	x
CCCCNC(=O)C1(NC(=O)Nc2ccc(C)cc2)CCCCC1	3.0	4646	4	1	-32	7	2
COCCCNC(=O)CC1C[C@H](C(=O)N(C(C)C)C(C)C)[C@@]2(C)c3[nH]c4ccccc4c3CCN2C1=O (stereo not given in full)	2.2	3664	-10	4	-24	-1	x
O=C(CSc1nc2ccccc2s1)N/N=C/c1ccco1	x	2121	x	x	-29	x	-16
N#C/C(=N\Nc1cc(Cl)cc(Cl)c1)c1nnc2n1CCCCC2	x	1985	x	x	2	x	1
O=c1ccc(-c2ccccc2)nn1Cc1ccccc1	x	4053	x	x	-10	x	-8
O=C(c1cc(-c2ccc(Cl)c(Cl)c2)on1)N1CCOCC1	11	6176	15	-4	-63	-8	-10
O=C1c2ccccc2[C@@H]2C[C@H](NC34CC5CC(CC(C5)C3)C4)[C@@H](O)CCN12	2.2	3700	4	7	-27	3	x
CC(=O)Nc1ccc(C(=O)OCC(=O)c2ccc(C)c([N+](=O)[O-])c2)cc1	-0.6	2724	x	x	-12	4	4
CN(CCC#N)C(=O)Cn1nc(Cc2ccncc2)c2ccccc2c1=O	-12	5623	4	12	0	-3	6
CCOc1cc(C(=S)N2CCOCC2)ccc1O	1.6	3301	-6	-4	-15	-6	-5
CCc1ccc[n+](-c2[nH]c(=O)sc2C=N/N=C(\[O-])c2ccncc2)c1	4.4	x	9	3	x	-1	x
COc1cccc(CN2CCC(C(=O)N3CCN(Cc4ccc5c(c4)OCO5)CC3)CC2)c1	5.6	u	5	2	2	6	-5
CC(=O)OCc1c(COC(C)=O)[n+](=O)c2ccccc2n1[O-]	20	4106	2	12	-15	12	-3
COc1ccc(C(C(=O)NC2CCCCC2)N(Cc2cccs2)C(=O)Cc2c[nH]c3ccccc23)cc1 (stereo not given)	-1.4	6030	-1	6	-3	-4	2
COc1ccc2c(c1O)-c1ccccc1CCN(C)C2	3.1	5664	x	x	-17	-9	8
O=C(NCC1CCCO1)c1ccc(Cl)c(S(=O)(=O)N2CCCCC2)c1 (stereo not given)	1.7	6663	7	4	-17	7	-8
Clc1ccc(COC(Cn2ccnc2)c2ccc(Cl)cc2Cl)cc1 (stereo not given)	x	6023	x	x	-23&-17	x	3
C#CCOCCOCCOCCNc1nc(N2CCN(C(=O)Cn3cc(CCO)nn3)CC2)nc(N2CCN(C(=O)C(C(C)O)n3cc(CCCCN)nn3)CC2)n1 (stereo not given)	8.9	x	12	4	x	2	x
O=C(NCc1ccccc1)C1=C[C@H](c2coc3ccccc3c2=O)C[C@H](OCc2ccc(CO)cc2)O1	-18	3828	8	1	-11	-5	-7
COC(=O)CN(C#N)c1nc(NCc2ccccc2)nc(OC)n1	3.2	4257	12	5	-24	-3	-4
COc1ccc(-c2csc(NC(C)c3nc4cc(Cl)c(Cl)cc4n3CCCO)n2)cc1 (stereo not given)	-8.0	3910	5	-5	-3	3	8
O=C(CSc1nncn1-c1ccccc1)Nc1ccc(N2CCOCC2)cc1	-0.1	2754	x	x	-25	2	-2
